# HNF4A DNA FP: change in binding of human HNF4 alpha to DNA; P41235; HNF4a-FITC DNA binding, fluorescence polarization, 1 h; activity change, % at 10 µM; hit rate 0.3% among 360,000; in the data active = activity change above about 30%, passing the limit was not always enough;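 also: controls were the assay level and a saturating level of protein; the project sought stronger binding though the title names inhibitors; some compounds called inactive have numbers as strong as hits; positive values seem to mean higher polarization but the record does not say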
# ALR inh: inhibitors of human sulfhydryl oxidase ALR. P55789. purified ALR, DTT oxidation, H2O2 HRP-luminol luminescence. inhibition, % (concentration not given with the values). hit rate 3.8% among 290,000;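 active = mean and each replicate at 75% or more; inconclusive = only one of the two met; inactive = neither met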;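 also: stock transfer was 7.5 nL into about 7.5 µL; 0% = neutral wells and 100% = wells with inactivated enzyme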
# Target sequence (P55789 whole entry, looked up): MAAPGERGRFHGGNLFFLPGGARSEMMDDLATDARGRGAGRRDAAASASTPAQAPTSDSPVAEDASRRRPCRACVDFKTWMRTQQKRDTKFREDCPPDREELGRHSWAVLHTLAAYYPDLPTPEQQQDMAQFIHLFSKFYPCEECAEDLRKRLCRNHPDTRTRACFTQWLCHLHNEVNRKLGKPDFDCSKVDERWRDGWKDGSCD
# MLL AF4-AF9 inh: MLL-AF4/AF9 protein interaction inhibition; AID 651704; inhibition, % at 10 µM; hit rate 0.47% among 350,000; P42568; AlphaScreen, biotin-AF4 peptide binding to FLAG-AF9;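 active = every replicate reaching a set inhibition limit, whatever the replicate mean, cut at about 25% in these data; inconclusive = mean inhibition reaches that limit but some replicates miss it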;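 also: 0% = plate neutral control median and 100% = total signal loss; the record names both 10 and 1 µM as test concentration; the first replicate is given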
# Target sequence (P42568 whole entry, looked up): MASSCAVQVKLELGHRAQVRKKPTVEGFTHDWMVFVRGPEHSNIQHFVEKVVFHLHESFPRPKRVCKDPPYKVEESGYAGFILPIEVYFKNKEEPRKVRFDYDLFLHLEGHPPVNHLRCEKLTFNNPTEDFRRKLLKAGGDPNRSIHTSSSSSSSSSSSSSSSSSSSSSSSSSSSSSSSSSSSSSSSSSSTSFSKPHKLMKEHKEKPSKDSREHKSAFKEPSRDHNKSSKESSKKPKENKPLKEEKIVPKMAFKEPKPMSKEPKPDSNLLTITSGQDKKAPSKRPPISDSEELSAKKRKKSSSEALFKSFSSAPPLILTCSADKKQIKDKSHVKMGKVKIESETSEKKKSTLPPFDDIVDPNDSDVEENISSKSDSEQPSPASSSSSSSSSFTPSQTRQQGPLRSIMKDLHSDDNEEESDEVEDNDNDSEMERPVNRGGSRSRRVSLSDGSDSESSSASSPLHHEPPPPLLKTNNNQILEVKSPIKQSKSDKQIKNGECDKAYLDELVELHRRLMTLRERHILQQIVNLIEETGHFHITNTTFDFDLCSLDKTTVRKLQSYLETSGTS
# Ecoli rRNA inh: selective bacterial rRNA inhibition in E. coli | E. coli WT GFP vs humanized-ribosome RFP mutants, fluorescence, 24 h; active compounds read low; DMSO median 0, no signal -100 | GFP signal change (wild-type ribosome), % (concentration not given with the values) | hit rate 1.6% among 350,000;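 active = significant combined selectivity score with lowered wild-type GFP, culture density cut under 30%, mutant RFP and density less affected; inactive = any of these conditions unmet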; also: one replicate is shown; some compounds called inactive have numbers as strong as hits
# Ecoli growth: blocks Escherichia coli growth; OD600, 23 h; active compounds read low; OD600 absorbance (no concentration beside the values); hit rate 0.21% among 330,000;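 active = OD600 absorbance below the run mean of sample wells minus 3.6 SD, in any replicate, cut at about 0.56 in these data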;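 also: stock transfer was 300 nL into about 60 µL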
# FGF22 binding: FGF22 (human) thermal shift binding; Q9HCT0; recombinant FGF22 thermal shift, SYPRO orange fluorescence; percent of sucrose octasulfate shift, DMSO zero; calls only at 9.99 µM; hit rate 1.5% among 340,000; AID 651658;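 active = melting point raised past a set limit in the mean and every replicate; inconclusive = no clear call; three in four hits are not shown here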
# Target sequence (Q9HCT0 whole entry, looked up): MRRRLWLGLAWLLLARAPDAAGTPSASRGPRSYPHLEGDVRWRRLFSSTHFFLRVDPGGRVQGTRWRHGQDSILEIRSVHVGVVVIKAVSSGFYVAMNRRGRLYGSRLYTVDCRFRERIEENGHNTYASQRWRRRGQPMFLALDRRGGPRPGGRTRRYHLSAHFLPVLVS
# Vif TR-FRET: HIV-1 Vif–A3G interaction blockers – biochemical, TR-FRET, GST-Vif 1-94, biotin-A3G peptide, dose response retest, primary screen (AID 1117319); hit rate 0.57% among 260,000; inhibition, %; hits with a dose series show IC50 in µM; TR-FRET GST-Vif / biotin-A3G peptide binding; higher % means a stronger effect; test concentration not given here; strong numbers were not always called active;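 active = above the screen mean plus three standard deviations and confirmed in dose response; inconclusive = results disagree or hit not tested in dose response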;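 also: Vif residues 1-94 fused to GST binding biotinylated APOBEC3G peptide 110-148; 0% = full assay without inhibitor and 100% = GST in place of GST-Vif; retest series ran down from 100 µM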
# Ecoli rRNA inh OD600: further read-out of Ecoli rRNA inh, marked with its call; OD600 change, %; measured here: OD600 growth;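 optical density of the mix in the first replicate; 0 = DMSO median and -100 = no signal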
# Ecoli rRNA inh RFP: also measured in Ecoli rRNA inh; calls as there; RFP signal change, %; measured here: RFP humanized mutant strains;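 first replicate; 0 = DMSO median and -100 = no signal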
# An asterisk follows results filed as active; i = inactive; ? = inconclusive; · = not tested or not shown. Some of the compounds tested. The share of hits here may be higher or lower than overall.
SMILES,HNF4A DNA FP,ALR inh,MLL AF4-AF9 inh,Ecoli rRNA inh,Ecoli rRNA inh OD600,Ecoli rRNA inh RFP,Ecoli growth,FGF22 binding,Vif TR-FRET
COc1ccccc1N1CCN(C(=O)CCc2nnc3ccc(N4CCCC4)nn23)CC1,-5.5,8,-5.0,-10,-6,-1.2,0.67,i,·
CC1(C(=O)NS(=O)(=O)c2cccs2)CCN1C(=O)Cc1ccccc1 (centres undefined),-4.8,·,-7.0,8,17,7.8,·,i,·
CCOc1cc(C(=O)NCc2ccco2)cc(OCC)c1OCC,-1.3,-1,0.0,11,8,2.9,·,i,20%
Cc1cccc(C(=O)NNC(=O)c2ccc(Br)cc2)c1,1.7,7,0.5,-1,-6,0.9,0.69,i,1%
CCN(CC(=O)NCc1cccs1)C(=O)c1ccc(S(=O)(=O)N(CC)c2ccccc2)cc1,3.2,-3,0.3,1,-17,-3.4,0.66,i,3%
O=C(CSc1nnc(-c2ccc([N+](=O)[O-])cc2)o1)Nc1ccccn1,2.6,-8,-1.2,24,20,2.2,0.67,i,·
COc1ccccc1-c1noc2ncnc(Nc3ccc4c(c3)OCO4)c12,-0.1,-1,-4.9,7,4,3.8,0.71,i,·
CN1c2ccc(-c3cccc(C#N)c3)cc2[C@H]2[C@H](CCN2S(=O)(=O)c2ccccc2F)[C@H]1CO,·,·,4.6,-5,-12,5.9,·,i,·
Cc1nc(C(F)(F)F)ccc1C(=O)N1CCC1(C)C(=O)NS(=O)(=O)c1c(C)noc1C (centres undefined),-2.0,·,0.8,13,14,0.6,·,i,·
COc1cc(NS(=O)(=O)c2ccc(N/C=C(\C=O)c3nc4cc(Cl)ccc4o3)cc2)nc(OC)n1,6.1,37,·,·,·,·,0.72,·,31%
S=C(NCC1CCCO1)c1ccc(Br)cc1 (centres undefined),2.7,-40,2.1,2,-1,0.3,0.65,i,-5%
Cc1ccc(NS(=O)(=O)c2cccs2)c(C)c1,4.8,37,-3.3,4,-4,0.5,0.71,i,·
O=C(c1cccc2ccccc12)C1CCCN(C(=O)c2ccc(N3CCOCC3)cc2)C1 (centres undefined),1.9,-5,3.8,-28,-37,-3.6,0.69,i,-6%
O=C(NCc1ccccc1)C1CC(=O)N(C2CCCCC2)C1 (centres undefined),-2.5,0,-2.1,5,7,-0.6,0.69,i,·
CCOP(=O)(O)c1ccccc1OCCOCCOc1ccccc1P(=O)(O)OCC,1.7,-4,·,·,·,·,0.69,·,18%
COc1ccc(CNC(=O)N2CCN(S(=O)(=O)c3ccc(C)cc3C)CC2)cc1,0.7,-6,-25,-10,-11,2.4,0.63,i,-5%
COc1ccccc1CNC(=O)Cc1cc(=O)[nH]c(=O)[nH]1,-2.1,-8,-1.3,0,6,-2.4,0.78,i,-13%
C[C@@H]1CCCCO[C@H](CN(C)Cc2ccc(Cl)c(Cl)c2)[C@@H](C)CN([C@@H](C)CO)C(=O)c2cc(NS(C)(=O)=O)ccc2O1,·,·,11,-38,-66,0.5,·,i,·
COc1ccccc1C(=O)N1CCN(Cc2cccnc2)CC1,1.2,-8,-0.7,6,5,1.2,0.66,i,-5%
CC(NC(=O)CCCc1nnc2n(C)c(=O)c3sccc3n12)c1ccccc1 (centres undefined),-4.6,-1,-0.4,-4,-3,-2.1,0.68,i,·
COc1cccc(C2(C)NC(=O)N(CC(=O)c3cc(C)n(C4CC4)c3C)C2=O)c1 (centres undefined),1.3,10,0.3,-31,-48,8.0,0.67,i,-7%
CCCCOC(=O)n1ccc(C(=O)Nc2ccccc2OC)n1,4.2,8,·,·,·,·,0.65,·,-2%
c1cncc(-c2csc(NCc3ccco3)n2)c1,1.6,15,·,·,·,·,0.64,·,>100µM*
O=S(=O)(c1cccc(-c2nc3ccccc3s2)c1)N1CCCC1,-1.4,-9,-14,-22*,-8.8*,4.0*,0.67,i,9%
Cc1cn([C@H]2C[C@H](O)[C@@H](CNCc3cnc(N4CCOCC4)s3)O2)c(=O)[nH]c1=O,-1.1,·,-1.5,·,·,·,·,i,0%

# Part of the list above, limited to Ecoli rRNA inh RFP and MLL AF4-AF9 inh.
structure | Ecoli rRNA inh RFP | MLL AF4-AF9 inh
CC1(C(=O)NS(=O)(=O)c2cccs2)CCN1C(=O)Cc1ccccc1 (centres undefined) | 7.8 | -7.0
CCOc1cc(C(=O)NCc2ccco2)cc(OCC)c1OCC | 2.9 | 0.0

# Next section
SMILES,HNF4A DNA FP,ALR inh,MLL AF4-AF9 inh,Ecoli rRNA inh,Ecoli rRNA inh OD600,Ecoli rRNA inh RFP,Ecoli growth,FGF22 binding,Vif TR-FRET
CCN(CC)S(=O)(=O)c1cc(NC(=O)Cc2ccsc2)ccc1C,1.2,-4,-1.5,-9,-17,1.2,0.66,i,-1%
COc1ccc(C(=O)NCc2nnc(SCC(=O)Nc3nc4ccc(C)cc4s3)o2)cc1OC,0.0,·,-3.0,·,·,·,·,i,9%
CC(=O)Nc1ccccc1OCc1cnc(Cl)s1,2.9,·,-0.8,12,1,-0.1,0.71,i,3%
Cc1noc(C)c1S(=O)(=O)Nc1ccc2c(c1)C(=O)N([C@@H](C)CO)C[C@@H](C)[C@H](CN(C)C(=O)CCC(F)(F)F)OCCCC[C@H](C)O2,·,·,2.2,-4,-8,-1.8,·,i,·
COCCCNS(=O)(=O)c1ccc(S(=O)(=O)N2CCCC2)cc1,-1.0,-7,·,·,·,·,0.74,·,-6%
COc1ccc(C=O)cc1Cn1c(=O)n(CCC(=O)NCc2ccco2)c(=O)c2sccc21,0.2,-1,-1.1,9,6,0.9,0.68,i,-4%
CN1C(=O)CSC1=Nc1cccc(Cl)c1,-0.1,-14,3.1,-11,0,-1.9,0.68,i,·
Cc1ccc(CNC(=O)C2CCC(CNS(=O)(=O)c3cccc4cccnc34)CC2)cc1 (centres undefined),0.9,0,-4.0,1,-3,-2.4,0.71,i,·
CC(C)C(=O)N1CCC(n2nccc2NC(=O)CCOc2ccccc2)CC1,-0.4,-6,-0.9,3,2,-1.3,0.68,i,·
O=C(Nc1ccccc1)N[C@H]1CC[C@H](CCNC(=O)c2ccccc2F)O[C@H]1CO,·,·,1.5,4,7,0.4,·,i,·
Cc1ccc(S(=O)(=O)NCCn2cnc([N+](=O)[O-])n2)cc1,3.0,-18,2.0,-2,14,-0.3,0.68,i,-1%
O=C(NCc1ccccc1)[C@H]1CCCN1C(=O)[C@H]1CCCN1C(=O)c1ccc(Cl)cc1,·,·,-1.2,9,14,1.6,·,i,·
CC(C)C(=O)Nc1cccc(C(=O)Nc2ccc(S(=O)(=O)N3CCOCC3)cc2)c1,2.6,-4,-2.6,-8,-9,6.2,0.67,i,·
CC(C)(C)n1ncc2c(=O)n(Cc3ccc(Cl)cc3Cl)cnc21,-2.7,-2,·,·,·,·,0.65,·,4%
COc1cc(C(=O)NCCC(=O)NC(C)CCc2ccccc2)cc(OC)c1OC (centres undefined),1.1,2,1.0,6,7,0.3,0.68,i,-12%
CCc1nc(N)c(C#N)c(-c2ccc(OC)c(OC)c2)c1C,4.6,-17,·,·,·,·,0.71,·,0%
Cc1ccc(NC(=O)c2ccnc(C(C)(C)C)c2)cc1,0.8,-10,·,·,·,·,0.69,·,13%
C[C@@H]1CN([C@H](C)CO)C(=O)c2cc(NC(=O)C3CC3)ccc2O[C@H]1CN(C)S(=O)(=O)c1ccc(Cl)cc1,·,·,-2.3,-3,-4,-1.4,·,i,·
COC(=O)CSc1nnc([C@H](Cc2ccccc2)NC(=O)OC(C)(C)C)o1,1.5,1,·,·,·,·,0.82,·,-5%
COc1ccc(NC(=O)N(C)C[C@H]2Oc3ncc(-c4cccnc4)cc3C(=O)N([C@@H](C)CO)C[C@H]2C)cc1,·,·,-5.4,9,9,0.6,·,i,·
COCCNC(=O)C[C@@H]1CC[C@@H]2[C@H](COc3ccc(NC(=O)Nc4cccc(F)c4)cc3C(=O)N2C)O1,·,·,-1.6,2,9,-1.8,·,i,·
CCNc1nc(NC(N)=S)nc(NC(C)(C)C)n1,-2.0,-5,-0.7,31,20,2.6,0.67,·,0%
O=C(COC(=O)/C=C/c1cn(-c2ccccc2)nc1-c1cccnc1)Nc1ccc(Cl)cc1Cl,2.4,-1,-1.2,5,-4,-3.5,·,i,6%
Cc1occc1C(=O)Nc1ccc(Br)cc1F,-1.5,14,·,·,·,·,0.7,·,3%
CC1CCCCN1S(=O)(=O)c1ccc(S(=O)(=O)N(CC(=O)Nc2ccccc2)Cc2cccs2)cc1 (centres undefined),1.8,2,·,·,·,·,·,·,?

# With a hit mark in Vif TR-FRET, of those listed so far:
SMILES,HNF4A DNA FP,ALR inh,MLL AF4-AF9 inh,Ecoli rRNA inh,Ecoli rRNA inh OD600,Ecoli rRNA inh RFP,Ecoli growth,FGF22 binding,Vif TR-FRET
c1cncc(-c2csc(NCc3ccco3)n2)c1,1.6,15,·,·,·,·,0.64,·,>100µM*

# Other records
SMILES,HNF4A DNA FP,ALR inh,MLL AF4-AF9 inh,Ecoli rRNA inh,Ecoli rRNA inh OD600,Ecoli rRNA inh RFP,Ecoli growth,FGF22 binding,Vif TR-FRET
O=C1c2ccccc2S(=O)(=O)N1Cc1c(F)cccc1Cl,-0.9,-1,-2.4,3,5,0.4,0.73,i,·
COCCN(Cc1cccs1)S(=O)(=O)c1ccc(-c2ccc(=O)[nH]n2)s1,-1.1,3,1.6,1,2,-0.6,0.63,i,-3%
Cc1occc1C(=O)Nc1ccccc1C(=O)O,-1.5,3,·,·,·,·,0.7,·,8%
CN(C(=O)CSc1ncnc2ccccc12)C1CCS(=O)(=O)C1 (centres undefined),0.3,-2,1.2,5,7,1.1,0.7,i,-18%
Cc1ccc2[nH]c(=O)c(CN(CCCN(C)C)C(=O)Nc3ccc(F)cc3)cc2c1,3.7,2,0.4,8,8,-2.5,0.65,i,·
CC(=O)Nc1nc(Cn2nnc(-c3ccc4c(c3)OCO4)n2)nc(N(C)C)n1,-0.1,43,-6.2,0,-6,-3.3,·,i,?
Cc1ccc(-n2c([S-])c(C(=O)Nc3ccc(OC(F)F)cc3)[n+]3ccc(C(=O)NCCO)cc23)cc1C,3.2,6,1.0,4,0,3.4,0.72,i,-6%
CN1OC[C@@H]2CN(C(=O)CCc3ccccc3)[C@H](c3cccc(-c4ccc(C#N)cc4)c3)C[C@@H]21,0.2,·,1.7,-8,-18,1.2,·,i,·
CN(Cc1c(F)cccc1Cl)c1ccc(S(=O)(=O)N2CCOCC2)cn1,2.3,0,·,-8,-15,-8.0,0.73,·,6%
COC(=O)C1CCN(S(=O)(=O)CCNC(=O)c2ccc3c(c2)OCO3)CC1,3.2,1,-1.7,8,7,-1.5,0.68,i,-2%
C[C@@H]1CN([C@@H](C)CO)C(=O)c2cc(NS(=O)(=O)c3cccs3)ccc2O[C@@H](C)CCCCO[C@@H]1CN(C)Cc1ccncc1,·,·,2.8,-1,-11,-2.1,·,i,·
Cc1nn(C(C)C(=O)NCC2CCCO2)c(=O)c2c1sc1ccccc12 (centres undefined),0.2,-4,-0.1,1,-6,-2.3,0.68,i,·
c1ccc(CCc2nc(-c3ccncc3)no2)cc1,0.7,4,·,·,·,·,0.69,·,2%
CN(c1ccccc1)S(=O)(=O)c1ccc(-c2ccccc2)cc1,-1.9,-21,1.4,-24*,-17*,-4.0*,0.7,i,-5%
Cc1nn2c(C(F)(F)F)cc(-c3ccc(Cl)cc3)nc2c1C(=O)N1CCOCC1,-5.7,5,·,·,·,·,0.71,·,?
O=C(O)c1ccc(NS(=O)(=O)c2cccc(C(=O)Nc3ccc(Br)cc3)c2)cc1,3.9,-5,-0.3,-27*,-19*,-7.9*,0.68,·,·
O=C(CCNC(=O)c1ccco1)Nc1ccc(N2CCOCC2)cc1,0.9,16,0.5,6,-4,4.0,0.68,i,-3%
